Screening results: PubChem, National Center for Advancing Translational Sciences (NCATS)
Vaccinia mCherry: vaccinia inhibition (mCherry reporter); Vaccinia virus mCherry reporter infection, fluorescence; about a quarter of the inactives have no number; Potency, µM (series often up to 36.5 µM), for inactives: at the highest dose activity change, negative = inhibition, actives largely listed as inhibitors; 0.63% of 310,000 active; active = well fitted inhibition curve with a large enough effect; inconclusive = small, poorly fitted or top-dose-only effect; inactive = no such curve, though single readings can be large or run the other way; tested in A549 cells; note: nearly all actives have a fitted effect of over 35% in size; inactives centre near -10
VACV Venus inh: inhibitors of vaccinia virus (Venus reporter); Vaccinia virus Venus reporter expression, fluorescence; Potency, µM (series often up to 36.5 µM), without a hit: at the highest dose activity change, negative = inhibition, actives largely listed as inhibitors; 0.46% of 330,000 active; AID 720580; active means well fitted inhibition curve with a large enough effect; inconclusive means small, poorly fitted or top-dose-only effect; inactive means no such curve, though single readings can be large or run the other way; tested in A549 cells; note: nearly all actives have a fitted effect of over 30% in size; inactives centre near -10
* hit, by the source's call; i = inactive; ? = inconclusive; nt = not tested or not shown; [ ] = another dose, or the depositor's remark. % is set by controls: 0 for no effect and ±100 for the full control effect; potency is the fitted concentration of half-maximal effect.

Below each compound: VACV Venus inh, Vaccinia mCherry
> CC(C)(C)c1ccc(C(=O)NCC(=O)OCCN2C(=O)c3ccccc3C2=O)cc1
  -19.4%, i
> Cc1ccc2cc(CN(C(=O)c3ccco3)c3cccc(C)c3C)c(=O)[nH]c2c1
  -5.6%, 17.3%
> Cc1cccc(N(CC(=O)NCc2ccco2)S(=O)(=O)c2ccccc2)c1
  -18.0%, -6.5%
> Cc1ccc(Nc2c(-c3ccc(C)cc3)nc3c(C)cccn23)cc1
  -12.5%, -18.6%
> Cc1cccc(N(C)C(=O)COc2cc(=O)n(C)c3ccccc23)c1
  -11.2%, 3.0%
> CN(C)CCCOC(=O)c1ccc(Cl)cc1
  1.6%, -8.2%
> CC(OC(=O)C(NC(=O)c1ccco1)C(C)C)C(=O)Nc1ncc(Cl)cc1Cl (configuration not stated)
  -4.1%, nt
> OCC(Cl)CCl (configuration not stated)
  -11.9%, -2.3%
> Cn1cccc1C(=O)NNC(=O)COc1ccc(Br)cc1
  0.3%, -2.2%
> CCOc1ccc(C(=O)c2ccc([N+](=O)[O-])cc2Cl)cc1
  -24.1%, -12.1%
> Cc1ccccc1C(=O)Nc1c(C)nc2ccccn2c1=O
  -7.8%, -11.3%
> CC(Oc1ccc([N+](=O)[O-])cc1Cl)C(=O)Nc1ccc(C(N)=O)cc1 (configuration not stated)
  -6.5%, -2.7%
> Cc1ccc(C2=NN(S(C)(=O)=O)C(c3ccc4c(c3)OCO4)C2)cc1 (configuration not stated)
  -21.2%, -25.9%
> Clc1ccc2c(N/N=C/c3cccnc3)ccnc2c1
  -20.5%, ?
> FC(F)(F)c1cnc(Oc2ccc(-c3nnco3)cc2)c(Cl)c1
  -8.6%, -14.0%
> CCCCCCn1c(=O)n2n(c1=O)C[C@]1(OC(=O)NCC3CCCCC3)CN(S(=O)(=O)c3ccc(C)cc3)C[C@]1(O)C2
  10µM*, ?
> O=C(NNC(=O)C1CCN(S(=O)(=O)c2ccc(Cl)cc2)CC1)c1ccc(S(=O)(=O)N2CCCCC2)cc1
  -4.3%, i
> CCC(c1nnnn1C1CCCC1)N1CCN(C/C=C/c2ccccc2)CC1 (configuration not stated)
  -4.5%, i
> COc1ccc(NC(=O)c2ccccc2SC)cc1
  -12.8%, i
> CCCCn1nnnc1SCC(=O)Nc1ccc2c(c1)OCO2
  -15.3%, -17.7%
> CCN=C(NCC)SC1CC(=O)N(c2ccc(F)cc2)C1=O (configuration not stated)
  -5.3%, -4.1%
> CCC(C)[C@H]1CNCCN1CCc1cc(C(F)(F)F)cc(C(F)(F)F)c1 (some centres not stated)
  15.8µM*, ?
> Cc1cc(C)cc(N(CC(=O)NCC2CCCO2)C(=O)CCC(=O)Nc2nccs2)c1 (configuration not stated)
  -14.7%, i
> CC(=O)Nc1ccc(C(=O)CCl)cc1
  -21.2%, -8.3%
> CCC(=O)c1ccc(OCc2ccc(C(=O)OC)cc2)c(OC)c1
  -8.8%, -0.6%
> Cc1nc(C(F)(F)F)ccc1C(=O)N1CCC(C)(C(=O)O)C1 (configuration not stated)
  -4.0%, 17.5%
> COc1cccc(OC)c1C(=O)Nc1ccccc1C(=O)N1CCOCC1
  -4.1%, -10.7%
> CC1(C)CC(=O)C(C(N)=NC(=O)c2ccccc2)=C(O)C1
  -10.2%, -0.3%
> COC(=O)CC1=NN(c2nc(C)cc(C)n2)C(=O)C1
  -16.2%, -0.6%
> FC(F)(F)c1ccccc1Cc1c(-c2ccco2)nc2ccc(Cl)cn12
  1.9%, -2.0%
> CC(C)c1ccc(NC(=S)NN(c2ccccc2)c2ccccc2)cc1
  -17.3%, ?
> CCC(C)C(NC)C(=O)O (configuration not stated)
  7.8%, 13.9%
> CN(Cc1c(C(=O)N/N=C/c2ccccc2)nnn1-c1nonc1N)C1CCCCC1
  1.1%[7.34 µM], i[7.34 µM]
> CCS(=O)(=O)N1N=C(c2ccc(C)cc2)CC1c1cc2ccc(OC)cc2nc1Cl (configuration not stated)
  9.4%, -3.3%
> CCOC(=O)CCc1c(C)c2ccc(OCc3ccc([N+](=O)[O-])cc3)cc2oc1=O
  -8.6%, -6.4%[1.46 µM]
> CC1(C)N=C(N)N=C(N)N1c1cccc(C(=O)O)c1
  -7.8%, i
> COc1ccc(Cl)cc1C=CC=NNC(=O)c1ccncc1
  -10.7%, -13.3%
> CC1CCN(c2nc(-c3ccc(Br)cc3)nc3ccccc23)CC1
  -3.4%, i
> NC(=O)COC(=O)C1CSC2(c3ccc(F)cc3)CCC(=O)N12 (configuration not stated)
  -7.8%, i
> O=C(Nc1nn[nH]n1)C12CC3CC(CC(C3)C1)C2
  3.8%, -8.7%

Pulled by compound from the entries so far (two):
Below each compound: VACV Venus inh, Vaccinia mCherry
> CN(Cc1c(C(=O)N/N=C/c2ccccc2)nnn1-c1nonc1N)C1CCCCC1
  1.1%[7.34 µM], i[7.34 µM]
> CC(C)c1ccc(NC(=S)NN(c2ccccc2)c2ccccc2)cc1
  -17.3%, ?

(further entries)
Below each compound: VACV Venus inh, Vaccinia mCherry
> Cn1c(=O)oc2cc(S(=O)(=O)NCCCN3CCCC3=O)ccc21
  -7.4%, i
> CCc1ccccc1SCc1noc(C(=O)NCC2CCCO2)c1C(=O)O (configuration not stated)
  -7.7%, -10.8%
> COCCCNC(=O)C1CCN(Cc2cc3ccccc3n2Cc2cccc(Cl)c2)CC1
  -11.4%, -15.0%
> Cc1c(CCOC(=O)c2cc([N+](=O)[O-])ccc2Cl)sc[n+]1CCCCS(=O)(=O)[O-]
  4.0%, i
> COc1ccc(CCNC(=O)C2CCN(S(=O)(=O)c3ccc(-n4cnnn4)cc3)CC2)cc1OC
  -6.3%, -11.4%
> CNS(=O)(=O)c1cccc(C(=O)OCc2csc(-c3ccccc3)n2)c1
  -23.3%, -19.8%
> O=C(CCOc1cccc(Br)c1)NNC(=O)COc1ccc(F)cc1
  -15.1%, i
> Cc1ccc(C(=O)Nc2c(-c3ccccc3)nc3ccccn23)cc1C
  -6.8%, -9.8%
> CCOc1ccccc1N1CN(Cc2ccccc2)CNC1=S
  -17.6%, i
> OCCC1CN(Cc2cccnc2)CCN1CCc1ccccc1 (configuration not stated)
  -18.4%, -8.9%
> Cc1[nH]c2ccccc2c1C(=O)C(=O)NCc1nnnn1-c1ccc(F)c(F)c1
  -8.5%, -14.1%
> CCOC(=O)c1ccc(NC(=O)c2cc(=O)[nH]c3ccccc23)cc1
  -0.3%, -3.9%
> COc1ccc(NC(=O)C2(C)CCN2Cc2ccc(C(C)C)cc2)cc1OC (configuration not stated)
  -9.0%, -7.1%
> COCCCNC(=S)Nc1cc(C)c(C)cc1C
  -1.7%, -17.4%
> CCN(C(=O)COC(=O)C1CCN(S(=O)(=O)c2cccs2)CC1)c1ccccc1
  -0.7%, -2.1%
> COCCSc1ccccc1C(=O)N1CCc2ccccc2C1
  1.1%, 4.2%
> CC(C)c1nc(N2CCN(C(=O)c3ccco3)CC2)c2c3c(sc2n1)CCCC3
  -29.6%, -13.5%
> CCOc1ccc(CNC(=O)C2Cc3cc(S(=O)(=O)N4CCCC4)ccc3N2C(C)=O)cc1 (configuration not stated)
  -14.8%, -11.6%
> CCOc1ccc(CCNC(=O)CSc2nn(-c3ccc(C)c(Cl)c3)c(=S)s2)cc1OCC
  -5.8%, -17.6%
> Cc1ccccc1NC(=O)Cc1nc(COC(=O)C(NC(=O)c2ccccc2C)C(C)C)cs1 (configuration not stated)
  1.0%, i

Taken from above:
Value of CCN(C(=O)COC(=O)C1CCN(S(=O)(=O)c2cccs2)CC1)c1ccccc1 in VACV Venus inh: -0.7%
Value of COCCSc1ccccc1C(=O)N1CCc2ccccc2C1 in VACV Venus inh: 1.1%

Additional structures follow.
Below each compound: VACV Venus inh, Vaccinia mCherry
> Cc1cc2cc(C=C(C#N)C#N)c(Cl)nc2cc1C
  41.1%[activator], i
> CCOc1ccc(Oc2ccc(Cl)cc2NC(=O)C2=COCCO2)cc1
  -20.5%, i
> Cc1oc(-c2ccc3c(c2)OCCO3)cc1C(=O)O
  -11.2%, -1.6%
> CC(C)(C)c1cc(Cl)ccc1OCCOCCN1CCCC1
  -24.5%, i
> O=C1c2cccc3c([N+](=O)[O-])ccc(c23)C(=O)N1CC1CCCO1 (configuration not stated)
  4.4%, -3.0%
> Cc1cc(/C=C2/C(=N)N3C(c4ccccc4)=CSC3=NC2=O)c(C)n1-c1ccc(Cl)cc1
  -11.4%, i
> CCOC(=O)C1=CCN(S(=O)(=O)c2ccc(Br)cc2)C1c1ccccc1 (configuration not stated)
  0.0%, i
> Cc1ccccc1Cn1ccn(-c2ccc(F)c(F)c2)c(=O)c1=O
  -6.7%, -7.8%
> N#CN=C1SCCS1
  -6.5%, i
> CC12CCC(=O)N1c1ccccc1C(=O)N2c1ccccc1 (configuration not stated)
  -2.6%, -13.5%
> Clc1cc2cccnc2c2ccccc12
  -3.4%, i
> COc1cc2c(cc1OC)C1c3ccc(OC)c(OC)c3OCC1(O)C2 (configuration not stated)
  -17.4%, -1.7%
> Cc1ccc2c(c1)C1CN(C)CCC1N2C(=O)COc1ccc(N(C)C(=O)C(C)(C)C)cc1 (configuration not stated)
  -26.3%, -5.7%
> Cn1cnnc1SCC(=O)NC1CCCCCC1
  -12.5%, -2.0%
> CC(C)CSc1nc2ccccc2c(=O)[nH]1
  -15.0%, nt
> O=C(Nc1ccccc1Cl)c1ccccc1Cc1ccccc1
  0.1%, -2.0%
> CS/C(=N\S(=O)(=O)c1ccc(Cl)cc1)c1ccccc1
  -5.9%, i
> CC(=O)OCC(=O)Nc1ccc([N+](=O)[O-])cc1Cl
  -6.0%, -4.9%
> NC(=O)NOCc1ccc(Cl)cc1Cl
  -7.2%, 6.1%
> COc1ccc(CSc2nnc(C)n2N)cc1[N+](=O)[O-]
  -4.2%, i
> CC(=O)c1ccc(OCC(=O)NC2CCCCCC2)cc1
  -18.3%, i
> COc1ccc(C(=O)C[n+]2cc(Br)cc3ccccc32)cc1
  -21.3%, 4.3%
> COC(=O)c1cc(NS(=O)(=O)c2ccc3c(c2)c(=O)n(C)c(=O)n3C)cc(C(=O)OC)c1
  -7.6%, i
> Cc1ccc(NC(=O)CCc2c(C)nc3nc(C)nn3c2C)c(Cl)c1
  1.9%, -3.6%
> Cn1cc(CN2CCCC(C(=O)c3cc(F)ccc3F)C2)c2ccccc21 (configuration not stated)
  -20.9%, -20.4%
> CSc1ccc(CCNC(=O)CCn2c(=O)c3cccn3c3ccc(F)cc32)cc1
  1.4%, -2.2%
> CCOc1ccccc1N(CC(=O)Nc1ccccc1C(=O)NCc1ccco1)S(C)(=O)=O
  -15.3%, -2.6%
> Cc1ccc(OC(C)C(=O)OCC(=O)Nc2sccc2C(N)=O)cc1 (configuration not stated)
  -11.6%, -19.0%
> CCOCCCN(C(=O)Cn1nnc(-c2ccc(OC)c(OC)c2)n1)C(CC)C(=O)NC1CCCC1 (configuration not stated)
  -16.4%, i
> CCOc1ccc(CCNC(=O)C(O)c2ccccc2)cc1 (configuration not stated)
  -10.9%, -16.0%
> CC(C)(CO)NC(=O)C12CC3CC(CC(Br)(C3)C1)C2
  -14.6%, -10.9%
> C=CC(C)N1C(=O)S/C(=C\c2ccc(N3CCOCC3)cc2C)C1=O (configuration not stated)
  -8.2%, -10.3%
> CC1=C(C(=O)N2CCCCCC2)CC(CC(=O)NCCc2ccccn2)C(=O)N1Cc1ccccc1 (configuration not stated)
  7.8%, 10.3%
> Cc1c2oc3c(C)ccc(C(=O)NC4C(=O)NC(C(C)C)C(=O)N5CCCC5C(=O)N(C)CC(=O)N(C)C(C(C)C)C(=O)OC4C)c3nc-2c(C(=O)NC2C(=O)NC(C(C)C)C(=O)N3CCCC3C(=O)N(C)CC(=O)N(C)C(C(C)C)C(=O)OC2C)c(N)c1=O (configuration not stated)
  -14.7%[13.8 µM], -13.6%[13.8 µM]
> CCCN(C(=O)c1cccc(S(=O)(=O)N2CCN(C)CC2)c1)c1c(N)n(Cc2ccccc2)c(=O)[nH]c1=O
  0.8%, -14.6%
> CCOc1ccc(-c2nc(-c3cccs3)c(CC(=O)O)s2)cc1OC
  2.3%, -6.4%
> Cc1sc2c(c1C)c(=O)n(-c1cccc(C(F)(F)F)c1)c(=O)n2Cc1ccc(F)cc1
  -27.2%, -17.6%
> O=C(Nc1ccc(Cl)cc1Cl)c1cc(S(=O)(=O)NCc2ccc3c(c2)OCO3)ccc1F
  ?, ?
> COc1cc(OC)c(OC)cc1CNC(=O)c1ccc(S(=O)(=O)N2CCCCC2)cc1
  -15.8%, -18.3%
> CC(=O)c1cn(CC(=O)Nc2ccc(C)c(C)c2)c2ccccc12
  1.2%, i
> CCOC(=O)c1nnn(-c2nonc2N)c1-c1ccc(C)cc1
  -17.6%, nt
> CCOC(=O)NC(=O)/C(C#N)=N\Nc1cccc(OC)c1
  -7.9%, i
> CCN(Cc1cc2cc(OC)ccc2[nH]c1=O)C(=O)Cc1ccc(OC)cc1
  -14.9%, nt
> Cc1cccc(NC(=O)C2CC3CCC2C3)c1C (configuration not stated)
  7.2%, -4.9%
> CCC(C(=O)Nc1ccc(C)cc1)c1ccccc1 (configuration not stated)
  -5.3%, -2.1%
> Cc1sc(NC(=O)CSc2n[nH]c(N)n2)c(C#N)c1C
  -2.4%, ?
> O=C(CCN1C(=O)C2C3C=CC(C3)C2C1=O)N1CCN(c2ccccc2F)CC1 (configuration not stated)
  -1.7%, i
> CN(CC(=O)Nc1cccc(F)c1)C(=O)c1ccc(COc2ccccc2)cc1
  -17.3%, -7.2%
> Cc1ccc(CNC(=O)c2nnn(CC(=O)Nc3cc(C)cc(C)c3)c2N)cc1
  -10.7%[7.34 µM], -10.7%[7.34 µM]
> CCOc1cc(N2CCOCC2)c(OCC)cc1NC(=O)COC(=O)c1ccc([N+](=O)[O-])o1
  -10.7%, i
